Mtb growth: M. tuberculosis H37Rv growth inhibitors, H37Rv strain (AID 1626). M. tuberculosis H37Rv growth inhibition; higher % means a stronger effect. inhibition, % at 10 µM; hits with a dose series show IC50 in µM. hit rate 0.95% among 220,000;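 active = confirmed in a dose series; inconclusive = inhibition above 80% but not taken into the dose series; inactive = below 80% or under 30% at every dose of the series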;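 also: bacteria incubated seven days before Alamar blue readout; 0% = bacteria only wells and 100% = bacteria with antibiotic wells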
Arbovirus anti: arbovirus infection inhibition; arbovirus infection cell-based antiviral screen; inhibition, % at 10 µM; hit rate 0.37% among 200,000; AID 1251;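 active = inhibition from about 30%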;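 also: bluetongue infection of BSR cells; cell survival read as ATP light after 72 h; 0% = infected wells without compound and 100% = uninfected wells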
Mtb betalactam: beta-lactam sensitization of Mtb H37Rv. hit rate 0.27% among 330,000. AID 434955. inhibition, % at 25 µM. M. tuberculosis H37Rv growth with meropenem, percent inhibition; hits of this screen are not shown here;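 active = about 74% or more and at least 40 points above the plate without the antibiotic, then above 30% in a dose series; inconclusive = first-round hits that could not be retested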;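 also: growth measured after seven days incubation then overnight dye step; 0% = bacteria only wells and 100% = bacteria with antibiotic; twin plates without the antibiotic show which effects depend on it; some results filed as inactive read as strong as hits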
YopH inh: inhibitors of Yersinia enterocolitica YopH tyrosine phosphatase. fluorescence Ex485/Em525. inhibition, %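 (about 10 µM by stock and volumes)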. hit rate 0.16% among 140,000. AID 898;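 active = inhibition of 50% or more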;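 also: controls were vehicle for no effect and minimum signal wells for full effect; inactives centre near -20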
RecA splice inh: blocks M. tuberculosis RecA intein splicing. inhibition, %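 (about 9 µM by stock and volumes)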. cell-free RecA intein splicing, fluorescence. hit rate 0.75% among 290,000. P9WHJ3; in the data active = inhibition above about 30%; inconclusive = no clear call, values can overlap the other calls;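 also: 0% = vehicle wells and 100% = reference inhibitor control wells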
Target sequence (P9WHJ3 whole entry, looked up, canonical isoform): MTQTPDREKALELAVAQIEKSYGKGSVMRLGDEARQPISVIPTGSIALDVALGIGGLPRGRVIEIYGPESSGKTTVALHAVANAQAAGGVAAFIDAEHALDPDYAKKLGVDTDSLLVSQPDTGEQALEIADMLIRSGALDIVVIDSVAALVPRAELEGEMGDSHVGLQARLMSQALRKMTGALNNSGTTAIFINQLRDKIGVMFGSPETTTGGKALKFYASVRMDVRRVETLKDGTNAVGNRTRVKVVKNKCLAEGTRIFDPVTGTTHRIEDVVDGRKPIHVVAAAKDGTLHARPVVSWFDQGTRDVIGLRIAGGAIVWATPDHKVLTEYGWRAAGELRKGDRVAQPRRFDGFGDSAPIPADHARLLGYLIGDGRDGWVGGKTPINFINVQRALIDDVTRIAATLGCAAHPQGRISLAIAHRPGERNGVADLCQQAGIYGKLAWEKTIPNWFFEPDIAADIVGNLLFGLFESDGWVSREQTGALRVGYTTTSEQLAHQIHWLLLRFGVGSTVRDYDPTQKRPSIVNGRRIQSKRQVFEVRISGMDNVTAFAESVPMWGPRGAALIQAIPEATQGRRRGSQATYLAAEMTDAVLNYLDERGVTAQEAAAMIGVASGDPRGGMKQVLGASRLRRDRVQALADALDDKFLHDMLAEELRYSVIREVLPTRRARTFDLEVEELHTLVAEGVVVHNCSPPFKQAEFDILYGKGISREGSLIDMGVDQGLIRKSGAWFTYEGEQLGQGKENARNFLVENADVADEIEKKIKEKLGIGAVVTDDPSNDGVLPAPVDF
Arbovirus anti repeat: further read-out of Arbovirus anti, marked with its call; inhibition, %; measured here: 10K subset replicate screen; many hits read low in the repeat;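 first of two repeat runs on a subset; 0% = infected and 100% = uninfected wells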
* marks the source's active call; other numbers are inactive results; u = inconclusive; x = not tested or not shown. An excerpt; count on the stated rates, not on these rows.

SMILES	Mtb growth	Arbovirus anti	Mtb betalactam	YopH inh	RecA splice inh	others
CN(C)C(=O)C1Cc2ccccc2CN1S(=O)(=O)c1cccs1 (stereo unspecified)	3%	-1	-3	x	-0.7
CN(C)CCCNC(=O)c1cc(C(=O)c2ccccc2F)c[nH]1	x	x	-6	x	0.2
O=C(COc1ccccc1)Nc1ccc(Cl)cn1	0%	-3	1	x	2.4
Cc1cc(C)c2ccc(=O)n(CC(=O)N/N=C/c3ccccc3Cl)c2n1	2%	x	-6	x	-2.0
CCOC(=O)n1c(=O)n(Cc2ccc(Cl)cc2Cl)c2ccccc21	4%	7	-3	4	2.6
Cc1c(N=C2NN=C(c3ccc(Cl)cc3)CS2)c(=O)n(-c2ccccc2)n1C	-6%	-1	-3	x	6.1
CC(C)CN(CC(C)C)c1nnc(NC(=O)Cn2c(=O)oc3ccccc32)s1	3%	12	0	9	-0.6
O=C(CSc1ccc2nnc(-c3ccccn3)n2n1)NCc1ccc2c(c1)OCO2	x	7	2	-56	-0.3	Arbovirus anti repeat=0
O=C(NCc1cccc(Cl)c1)C1CCC(=O)N(CCCN2CCCC2=O)C1 (stereo unspecified)	x	x	2	x	1.7
O=C1CS(=O)(=O)c2ccccc2N1	x	x	0	x	0.8
CCOC(=O)C1=C(N)Oc2cc(C)oc(=O)c2C12C(=O)N1c3c(cccc32)C(C)CC1(C)C (stereo unspecified)	-4%	4	11	-20	-4.3
O=C(/C=C/c1cn(-c2ccccc2)nc1-c1cccc(Cl)c1)N1CCN(c2ccccn2)CC1	u	-17	88	x	12
COc1ccc(C2=CC(c3cccc(OC)c3)n3nnnc3N2)cc1 (stereo unspecified)	4%	11	43	-19	-36
COc1ccc(NC(=O)CCCNC(=O)Cn2cnc3sc(C)c(C)c3c2=O)cc1Cl	x	x	2	x	1.0
Cn1c(SCC(=O)C(C)(C)C)nnc1-c1ccccn1	-6%	5	-16	-22	-1.9
Cc1ccc(NC(=O)C2CC(=O)N/C(=N/N=C/c3ccco3)S2)cc1 (stereo unspecified)	-9%	-9	5	-29	-3.5
CCC[C@H](CN[C@@H](CNC)[C@H](C)CC)NCCc1cc(C(F)(F)F)cc(C(F)(F)F)c1	x	x	99	x	1.4
COc1ccccc1C(=O)Nc1ccnn1C1CCN(Cc2ccccc2OCCO)CC1	x	x	-23	x	-0.5
CN(C)/C=C/C1=C([N+](=O)[O-])C(c2cccc([N+](=O)[O-])c2)NC(=O)N1 (stereo unspecified)	-1%	x	-3	x	1.9
COc1ccc2o/c(=N\O)c(C(=O)Nc3ccccc3OC)cc2c1	-1%	-14	44	2	-2.4

The list goes on, starting with the last 3 of the part before.
SMILES	Mtb growth	Arbovirus anti	Mtb betalactam	YopH inh	RecA splice inh	others
COc1ccccc1C(=O)Nc1ccnn1C1CCN(Cc2ccccc2OCCO)CC1	x	x	-23	x	-0.5
CN(C)/C=C/C1=C([N+](=O)[O-])C(c2cccc([N+](=O)[O-])c2)NC(=O)N1 (stereo unspecified)	-1%	x	-3	x	1.9
COc1ccc2o/c(=N\O)c(C(=O)Nc3ccccc3OC)cc2c1	-1%	-14	44	2	-2.4
O=C(Nc1ccc(S(=O)(=O)Nc2nccs2)cc1)C1CC(=O)N(c2ccc(Cl)cc2)C1 (stereo unspecified)	x	x	-3	x	2.2
Cc1cc(O)c(-c2ccno2)cc1Cl	0%	8	3	-1	-2.4
O=C(COC(=O)c1cc([N+](=O)[O-])ccc1N1CCOCC1)c1ccccc1Cl	x	x	2	x	2.1
COCCN1C=C(C(=O)OC)C(c2ccccc2Cl)C(C(=O)OC)=C1	0%	5	5	x	-28
CCOC(=O)c1cc2c(C(F)(F)F)cc(-c3cccnc3)nc2o1	-9%	-9	-11	-46	0.5
COc1cccc(OCCSc2nc(C)c(Cc3ccccc3)c(=O)[nH]2)c1	-5%	-2	0	x	0.2
CC(C)CN(C(=O)C1CCCO1)C1CCS(=O)(=O)C1 (stereo unspecified)	x	x	0	x	-2.9
Cc1ccc(Nc2nnc(-c3ccncc3)s2)c(Br)c1	17%	25	-1	-19	0.6
Cc1cc(C(=O)NCc2ccccc2Cl)n(-c2ccccc2)n1	1%	x	14	x	1.0
Cn1c(SCC(=O)NC(=O)Nc2ccccc2)nnc1-c1ccncc1	-2%	x	-1	x	-1.7
O=C(CN1c2ccccc2S(=O)(=O)c2ccccc21)Nc1ccccc1F	x	x	4	x	-1.9
CCOC(=O)c1[nH]c(C)c(C(=O)N2CCN(C(=O)c3ccco3)CC2)c1C	-2%	2	-4	2	0.4
O=C(Cc1ccccc1)Nc1ccc(NC(=O)c2ccc(Br)cc2)cc1	x	x	-3	x	-0.2
Cc1nn(-c2cccc3cccnc23)c(=O)c2ccccc12	-1%	1	-9	-14	0.1
COc1cc(/C=N/NC(=O)c2cccc(NC(=O)c3ccccc3)c2)ccc1O	x	x	-1	x	-1.9
N#C/C(=C/c1ccc(N2CCCCCC2)o1)c1ccc(F)cc1	27%	-25	62	-8	2.0
Cc1cccc(-n2c(Cc3ccccc3)nnc2SCC(=O)N2CCOCC2)c1	6%	2	-6	-35	-0.4
O=C(N/N=C/c1cccs1)c1n[nH]c2c1CCCC2	x	x	-1	x	-1.2
O=S(=O)(c1cccs1)N1CCN(c2cccc(Cl)c2)CC1	x	x	-7	x	1.5
CC(C)(C)c1cc(C(=O)Nc2cccnc2)cc(C(=O)Nc2cccnc2)c1	x	x	9	x	0.9

Part of the list above in order of SMILES length, largest number first:
SMILES	Mtb growth	Arbovirus anti	Mtb betalactam	YopH inh	RecA splice inh	others
O=C(CN1c2ccccc2S(=O)(=O)c2ccccc21)Nc1ccccc1F	x	x	4	x	-1.9
O=C(Cc1ccccc1)Nc1ccc(NC(=O)c2ccc(Br)cc2)cc1	x	x	-3	x	-0.2
O=S(=O)(c1cccs1)N1CCN(c2cccc(Cl)c2)CC1	x	x	-7	x	1.5
Cc1nn(-c2cccc3cccnc23)c(=O)c2ccccc12	-1%	1	-9	-14	0.1
O=C(N/N=C/c1cccs1)c1n[nH]c2c1CCCC2	x	x	-1	x	-1.2

(listing goes on)
SMILES	Mtb growth	Arbovirus anti	Mtb betalactam	YopH inh	RecA splice inh	others
CCOC(=O)N/N=C1\CC(C)S(=O)(=O)c2ccc(Cl)cc21 (stereo unspecified)	3%	x	0	x	1.8
O=C(NCCCl)c1ccc(OCc2ccccc2)cc1Cl	4%	-12	2	x	-0.7
Cn1c2c(c(=O)n(C)c1=O)C1(C(=O)Nc3ccccc31)C(C#N)=C(N)O2 (stereo unspecified)	-8%	3	-1	-27	29
CSc1ccc(Cl)c(C(=O)OCC(=O)NCC(C)C)c1	-8%	3	-8	-7	-0.2
Cc1cccc(N2CCN(C(=O)c3cccc(N4C(=O)C5C6C=CC(C6)C5C4=O)c3)CC2C)c1 (stereo unspecified)	x	x	1	x	0.2
CCN(c1ccccc1)S(=O)(=O)c1ccc2[nH]cc(C(=O)N3CCOCC3)c(=O)c2c1	2%	14	-4	-9	3.7
O=C(CSc1nncn1-c1ccccc1)Nc1cc(Cl)cc(Cl)c1	1%	-3	-6	-26	-2.2
O=C(Cc1c(Cl)cccc1Cl)NC1CC1	x	x	8	x	-0.4
O=C(Nn1cnnc1)c1cc(-c2ccccn2)nc2ccccc12	-2%	-3	-9	-43	-1.7
COc1ccccc1COCC(O)CNCCc1ccc(C(F)(F)F)cc1 (stereo unspecified)	x	x	-2	x	-1.8
CC(C)(CO)NC(=O)c1ccc2nc(Cc3cccc(Cl)c3)oc2c1	x	x	7	x	-3.2
COc1cc(OC)nc(Oc2cc(C=O)ccc2OC)n1	x	x	-5	x	0.2
CC(=O)Nc1ccc(CN2CCN(C3CCCCC3)C(CCO)C2)cc1 (stereo unspecified)	5%	2	-6	x	0.1
O=C(N/N=C/C(Br)=C/c1ccccc1)c1n[nH]c2c1CCC2	23%	-36	1	-19	7.4
O=C(Cc1n[nH]c(=O)[nH]c1=O)N/N=C/c1ccccc1O	-3%	1	0	-33	-1.5
O=C(O)c1cccc(N/C(=N\S(=O)(=O)c2ccccc2)c2ccccc2)c1	-1%	3	-7	x	-2.5
O=C(O/N=C/c1ccc2c(c1)OCO2)c1ccccc1Cl	53%	-9	99	-19	2.6
NC(=S)N/N=C/c1cccc(/C=N/NC(N)=S)c1	38%	x	x	x	-2.4
CC(C)C(NC(=S)NCc1ccccc1)C(=O)O (stereo unspecified)	-5%	-1	-9	-6	0.8
Cc1ccc(N2C(=O)CCC2(C#N)c2ccccc2)cc1 (stereo unspecified)	1%	x	-3	x	x
O=C(NCCN1CCOCC1)c1ccc(Cl)nc1Cl	7%	12	-2	x	0.9
O=C1C=C(O)C(n2cncn2)C(c2cc(F)ccc2F)C1 (stereo unspecified)	-3%	-1	-3	x	-5.8
O=[N+]([O-])c1ccccc1CSc1ccccn1	-1%	x	-2	x	-2.8
CN1CCCC(OC(=O)COc2ccc(Br)cc2)C1 (stereo unspecified)	-6%	1	-2	-26	3.1
CCOC(=O)CSc1nnc(CNC(=O)c2cc(OCC)c(OCC)c(OCC)c2)n1C	-3%	2	-3	-15	x
O=C(N/N=C/C1CC=CCC1)c1ccccc1O (stereo unspecified)	-12%	9	56	5	-4.7
CN1CCN(CCCNC(=O)c2ccc(/C=C3\Sc4ccccc4N(Cc4ccccc4F)C3=O)cc2)CC1	34%	-31	x	x	12
O=c1c2c3c(sc2ncn1-n1cccc1)CCCCC3	-9%	7	-1	6	3.6
C=CCS(=O)(=O)N1CCC(CCOc2ccccc2)(C(=O)OCC)CC1	-4%	-3	6	x	3.9
Cc1ccc(Cc2cnc(NC(=O)/C(C#N)=C/c3ccc(-c4ccc([N+](=O)[O-])cc4)o3)s2)cc1	u	-4	-10	-1	-2.5
Cc1cc(C)n2nc(CNS(=O)(=O)c3ccc(C)c(C)c3)nc2n1	x	x	-5	x	-1.7
CCOc1ccc(-n2c(=O)c3c4c(sc3n(CC(=O)NCCCOC)c2=O)CCCCC4)cc1	-4%	-5	-7	x	1.2
Cc1noc(C)c1C(=O)Nc1ccc(-n2ccc(C(F)(F)F)n2)cc1	x	x	1	x	0.8
Cc1ccc(S(=O)(=O)N2CCN(C(=O)c3ccccc3)CC2)c(C)c1NS(C)(=O)=O	-3%	5	-8	x	1.0
Cn1ncc([N+](=O)[O-])c1C(=O)N/N=C/c1c[nH]c2ccccc12	-4%	1	1	x	-4.0
CCc1ccc(NC(=O)CCc2nc3ccccc3[nH]2)cc1	-4%	-6	-2	x	-3.1
O=C(Nc1nc2ccc(S(=O)(=O)N3CCCC3)cc2s1)c1cccs1	0%	-14	-4	-15	-11
O=C(NCCOc1ccccc1)C1CCC(=O)N(CCCN2CCOCC2)C1 (stereo unspecified)	x	x	-15	x	5.9
O=C(CCC(=O)OCCCC(F)(F)C(F)(F)F)NC1CCCCC1	-2%	5	-3	-16	0.6
O=C(CSc1nnc(C2CC2)n1-c1ccccc1)NCCN1C(=O)CSC1=O	5%	4	-5	x	2.8
CCn1cc(CN2CCC(n3nccc3NC(=O)CCOc3ccccc3)CC2)cn1	x	x	9	x	-2.7
CCOC(=O)C1C(=O)NC(N2CCN(Cc3ccccc3)CC2)=NC1c1ccco1 (stereo unspecified)	3%	2	8	-43	-2.9
CCCCNC(=S)N/N=C/c1ccc(C#N)cc1	42%	-4	-10	x	-0.1
Cc1ncc([N+](=O)[O-])n1CC(=O)NC1CCCC1	-14%	2	2	4	0.9
CCCN(c1ccc(OCC)cc1)S(=O)(=O)c1ccc2c(c1)NC(=O)CO2	x	x	-5	x	-1.2
C/C(=N\N=C1\NC(=O)C(CC(=O)O)S1)c1ccccn1 (stereo unspecified)	4%	x	12	x	x
CCCC(=O)c1c(NCCO)cc(C)oc1=O	5%	3	-2	x	1.1
CCO[C@@H]1OC(C(=O)NC2CC2)=C[C@H](c2coc3ccccc3c2=O)[C@H]1CCCO	-3%	x	-15	x	-3.8
Cc1ccc(C)c(NC2CCCCC2NS(=O)(=O)c2ccccc2)c1 (stereo unspecified)	x	x	-3	x	5.4

Bioassay records (PubChem)
